Assay outcomes as filed in PubChem.
TRPV1 PAM: potentiators of human vanilloid receptor 1 (TRPV1) | potentiation, % at 8.33 µM | 320,000 tested, 0.02% active | TRPV1-expressing cells, Fluo-8 calcium influx, capsaicin EC20 potentiation; host cell line not named in the record; control for the full effect not named in the record; active means potentiation above 80%; inconclusive means 30% to 80%; inactive means below 30%; also: 0% is about no effect
Target sequence (Q8NER1 whole entry, looked up): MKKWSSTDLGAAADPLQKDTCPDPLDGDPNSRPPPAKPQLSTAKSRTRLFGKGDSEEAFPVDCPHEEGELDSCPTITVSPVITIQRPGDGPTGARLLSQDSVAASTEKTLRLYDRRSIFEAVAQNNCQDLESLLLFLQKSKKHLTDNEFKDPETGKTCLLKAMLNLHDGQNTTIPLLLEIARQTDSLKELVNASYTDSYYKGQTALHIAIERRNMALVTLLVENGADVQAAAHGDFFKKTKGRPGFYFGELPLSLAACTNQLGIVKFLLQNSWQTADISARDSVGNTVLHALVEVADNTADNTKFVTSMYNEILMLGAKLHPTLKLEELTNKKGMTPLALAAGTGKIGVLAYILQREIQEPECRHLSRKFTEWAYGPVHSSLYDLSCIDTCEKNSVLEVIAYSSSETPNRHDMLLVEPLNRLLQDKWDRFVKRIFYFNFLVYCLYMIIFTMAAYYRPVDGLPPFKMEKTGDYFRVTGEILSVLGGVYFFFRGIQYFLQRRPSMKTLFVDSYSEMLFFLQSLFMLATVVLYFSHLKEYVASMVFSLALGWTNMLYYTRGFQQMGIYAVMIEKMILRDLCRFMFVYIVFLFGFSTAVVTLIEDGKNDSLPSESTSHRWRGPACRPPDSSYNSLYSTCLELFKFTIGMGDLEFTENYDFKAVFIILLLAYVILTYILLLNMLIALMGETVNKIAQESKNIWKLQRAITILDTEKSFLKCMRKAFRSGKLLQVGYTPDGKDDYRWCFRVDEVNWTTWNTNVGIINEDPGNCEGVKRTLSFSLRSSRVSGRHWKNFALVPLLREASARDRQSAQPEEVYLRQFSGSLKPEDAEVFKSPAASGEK
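Cells expressing TRPV1 were dye-loaded with Fluo-8 and read kinetically: 10 s baseline, 3 min after compound (agonist portion), then 2 min after EC20 capsaicin (allosteric enhancer portion). Calcium-bound dye fluorescence at 480/520 nm.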
gsp ag: agonists of gsp mutant (McCune-Albright syndrome); gsp mutant cells, cAMP HTRF, 30 min; control for the full effect not named in the record; Potency, µM (top dose mostly 76.9 µM), for inactives: at the top dose activation (cAMP increase), actives largely listed as activators; 340,000 tested, 0.13% active; active = well fitted activation curve with a large enough effect; inconclusive = small, poorly fitted or top-dose-only effect, or another doubt; inactive = no such curve, though single readings can be large or run the other way; cell line not stated here;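 also: phosphodiesterase inhibitor Ro 20-1724 added with compounds to block cAMP breakdown; potency is read from the fitted curve at half-maximal effect; nearly all actives have a fitted effect of over 60% in size; about a fifth of the inactives were tested at one dose only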
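Cells in DMEM/10% FBS with G418 were pretreated with compounds in DMSO plus […] (300 uM stock) for 30 min at 37C. cAMP was measured by HTRF (cAMP-d2 plus anti-cAMP antibody-K) after 30 min at room temperature.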
Menin MLL FP FL: displaces fluorescein MLL peptide from human menin; Fluorescence polarization, fluorescein-MLL peptide displacement from menin; FP activity change, % at 61.4 µM; 290,000 tested, under 10 active; inconclusive = falling polarisation curve, or a change in total fluorescence; inactive = total fluorescence flat and polarisation flat or rising; no compound was filed as active; the % refers to the polarisation; negative = inhibition;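 also: % of control where 0% means no effect; inhibitors lower the polarisation; unlabelled MLL peptide was the positive control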
Sfp inh: Sfp phosphopantetheinyl transferase inhibition. Biochemical Sfp PPTase activity, qHTS. Potency, µM, without a hit: max response, negative = inhibition, actives largely listed as inhibitors. 310,000 tested, 3.5% active. AID 1490; active = well fitted inhibition curve with a large enough effect; inconclusive = small, poorly fitted or top-dose-only effect, or another doubt; inactive = no such curve, though single readings can be large or run the other way;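 also: the enzyme is Sfp with the accession as filed and its product quenches rhodamine fluorescence; potency is read from the fitted curve at half-maximal effect; 0% = enzyme reaction without inhibitor and -100% = no enzyme wells; top concentration of the series not given in the record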
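Reaction rates are the 30-min fluorescence difference (ex 525, em 598 nm) in wells containing 15 nM Sfp, 5 uM rhodamine-CoA and 12.5 uM BHQ-2-YbbR at pH 7.6 with 10 mM MgCl2.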
ClpP mod: qHTS Assay for Activators of ClpP | purified B. subtilis ClpP, FRET peptide cleavage, 20 min | ATP-dependent Clp protease proteolytic subunit (Bacillus subtilis (strain 168)), P80244 | 340,000 tested, 1.9% active | Potency, µM (highest dose often 57.5 µM), for inactives: top-dose activity change, negative = active; active = well fitted falling curve with a large enough effect; inconclusive = small, poorly fitted or top-dose-only effect; inactive = no such curve, though single readings can be large or run the other way; also: potency is read from the fitted curve at half-maximal effect; the source files actives as falling curves though it sought activators and does not explain the sign; nearly all actives have a fitted effect of over 65% in size; many hits overshoot -100%
Target sequence (P80244 whole entry, looked up): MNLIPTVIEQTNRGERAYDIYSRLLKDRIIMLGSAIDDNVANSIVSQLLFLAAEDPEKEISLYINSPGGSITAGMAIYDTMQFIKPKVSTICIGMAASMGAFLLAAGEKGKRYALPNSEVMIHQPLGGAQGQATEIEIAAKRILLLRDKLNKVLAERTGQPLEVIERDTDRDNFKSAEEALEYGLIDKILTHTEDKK
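FRET quenching reversal measured ClpP activation: 10 microg/mL B. subtilis ClpP at pH 8 with the FRET-FV decapeptide, read at 430 nm after 320 nm excitation. The 20-min minus 0-min signal was scaled between DMSO/no-enzyme wells and ADEP (5.8 microM final).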
gsp antag: gsp mutant antagonism; Potency, µM (titrated, usually from 76.9 µM), inactives show at the highest dose activity change, negative = inhibition, hits mostly inhibitors; 340,000 tested, 0.4% active; gsp-mutant cells, cAMP HTRF, 30 min; control for the full effect not named in the record; active = falling curve of any shape with a large fitted effect; inconclusive = falling curve, mostly with a smaller effect; inactive = flat or rising curve; cell line not stated here;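 also: intracellular cAMP measured with PDE inhibitor Ro 20-1724 present during compound exposure; potency is read from the fitted curve at half-maximal effect; % is scaled to controls: 0 for no effect and ±100 for the full control effect; nearly all actives have a fitted effect of over 65% in size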
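HTRF cAMP measurement after 30 min RT detection following 30 min, 37C compound treatment alongside […] (added as 300 uM solution) in G418-selected cells seeded at 2000/well and grown 16–24 h.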
CtBP-E1A blk: blocks the CtBP interaction with E1A; activity change, % (no concentration beside the values); 340,000 tested, 0.49% active; AID 651724; AlphaScreen GST-E1A/His-CtBP binding, 1536-well; stronger effect = lower value; control for the full effect not named in the record; in the data active means activity change below about -65%; inconclusive means about -30% to -65%; inactive means above about -30%; also: % is scaled to controls: 0 for no effect and ±100 for the full control effect; compound concentration not given in the record
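Steps: dispense buffer (Tris pH 8.0, NaCl 300 mM, TCEP 1 mM, BSA, Tween 20); add 5X protein mix (GST-E1A, His-CtBP, 125 nM each); pin 23 nL compound; 2 h at 37 °C, dark; add 5X beads (50 ug/mL); 1 h; read.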
Starred values were filed as active, the others as inactive; u = inconclusive; x = no result given; & = joins results of further samples; [ ] = remark or other dose.

#	SMILES	TRPV1 PAM	gsp ag	Menin MLL FP FL	Sfp inh
1	COc1ccc(NS(=O)(=O)c2c(C)[nH]c(=O)[nH]c2=O)cc1OC	15	10%	-2.1	13%
2	COc1cccc2c3c(c(C)nc12)CCN3c1ccccc1	-10	7%[15.4 µM]	-0.5	3%
3	CC(=O)c1cccc(NC(=O)C2CCCN(S(=O)(=O)c3cccc4nonc34)C2)c1 (stereo not drawn)	-11	u	u	5%
4	O=C(NC1CC1)C1CCN(C2CCN(C(=O)CC3=CCCCC3)CC2)CC1	5	u	-0.7	2%
5	Cc1ccc(S(=O)(=O)Nc2cc(=O)[nH]c(SCC(=O)Nc3ccccc3C(F)(F)F)n2)cc1	24	6%	-1.3	1%
6	O=C1NC(c2cccs2)Nc2sc3c(c21)CCCC3 (stereo not drawn)	-22	29%	7.1	45µM*
7	NC(=O)C1CCCN1 (stereo not drawn)	-8	-5%[15.4 µM]	0.2	-3%
8	O=S(=O)(Cc1ccc(Cl)cc1)CC(O)COCc1ccccc1 (stereo not drawn)	0	-24%	-1.7	18%
9	CC(C)CC(=O)Nc1ncc([N+](=O)[O-])s1	-10	18%	5.2	35µM*
10	Cc1nc2ncnn2c(N2CCC(C(=O)NCC3CCCO3)CC2)c1Cc1ccccc1 (stereo not drawn)	x	3%	x	x
11	CCOC(=O)c1c(NC(=O)c2cc(C(C)C)on2)sc(C(C)=O)c1C	0	-12%	2.8	4%
12	CCO[C@@H]1OC(C(=O)O)=C[C@H](C2CC2)[C@H]1CCCO	29	5%	-0.1	-5%
13	NC(=O)NC(=O)CN1C(=O)NC2(CCOc3ccccc32)C1=O (stereo not drawn)	-8	-15%[15.4 µM]	1.3	17%
14	COc1ccc2nc(SCC(=O)NCCc3ccccc3)[nH]c2c1	-8	-7%[15.4 µM]	-0.1	7%
15	CC(C)CCNC(=S)Nc1ccc(F)cc1	x	12%	x	x

#	ClpP mod	gsp antag	CtBP-E1A blk
1	0.4%	-5%	x
2	x	26%	-2
3	x	-14%	0
4	x	9%	0
5	x	5%	-5
6	-24%	-2%	-2
7	x	15%	-20
8	-0.1%	-6%	12
9	x	-1%	-1
10	-4.0%	10%	4
11	14%&-3.4%	2%	-1
12	0.3%	10%	x
13	x	-16%	-4
14	x	5%	-4
15	-0.7%	-3%	-3

(further entries)
#	SMILES	TRPV1 PAM	gsp ag	Menin MLL FP FL	Sfp inh
16	CC(C)CNC(=O)C1CCCN1S(=O)(=O)c1ccc(Cl)cc1 (stereo not drawn)	7	10%	0.2	2%
17	CC(C)(C)c1ccc(C(=O)NCC(=O)N/N=C/c2cccnc2)cc1	-4	-16%	-0.5	15%
18	Cc1ccc(N2C(=O)c3ccc(C(=O)N4CCN(c5cccc(C)c5C)CC4)cc3C2=O)cc1	18	12%	-0.6	6%
19	COC(=O)[C@]1(Cc2ccccc2)N[C@H](CN(C)S(=O)(=O)c2ccc(C(F)(F)F)cc2)[C@@H]2C(=O)N(Cc3ccccc3)C(=O)[C@@H]21	x	x	x	x
20	COc1ccc(N2CCN(C(=O)CNC(=O)c3ccc4ccccc4c3)CC2)cc1	0	1%	x	x
21	COCCNC(=O)C1(C)Oc2ccccc2NC1=O (stereo not drawn)	8	10%	-4.3	8%
22	CCOCC(=O)Nc1cc(C(=O)NCCc2ccccc2)ccc1Cl	-19	-5%	-1.1	-18%
23	CC(C)C(=O)Nc1cccc(COc2ccc(CN(Cc3ccccc3)C(=O)OC(C)(C)C)cc2)c1	x	x	x	x
24	CCOC(=O)C(CC)Sc1nc(N)c(NC(=O)c2ccc(OC)c(OC)c2)c(=O)[nH]1 (stereo not drawn)	-2	-15%	-1.0	15%
25	O=C(CSc1nc2ccccc2c(=O)n1CCCN1CCOCC1)Nc1ccc(F)c(Cl)c1	x	7%	x	x
26	CC1(OC(=O)C2CCCC2)C(=O)C=C2C=C(c3ccsc3)N(CC3CC3)C=C2C1=O (stereo not drawn)	u	x	3.9[11.7 µM]	18%&-19%
27	Fc1ccccc1N1CCN(c2nc(-c3cccs3)nc3ccccc23)CC1	8	-4%[15.4 µM]	3.2	u
28	Cc1sc2ncnc(SCC(=O)Nc3cccc(S(N)(=O)=O)c3)c2c1C	x	u	x	x
29	O=[N+]([O-])c1ccc2oc(/C=C/c3ccc(O)cc3)nc2c1	x	-46%[inhibitor]	x	x
30	Cc1ccccc1-n1sc2cc(F)ccc2c1=O	-14	8%[15.4 µM]	-3.1	0.56µM*

#	ClpP mod	gsp antag	CtBP-E1A blk
16	-1.5%	7%	3
17	x	-1%	-2
18	0.1%	u	0
19	1.0%	u	-1
20	-1.6%	1%	-3
21	1.2%	6%	4
22	x	-4%	13
23	-2.4%	-11%	4
24	0.2%	4%	4
25	-1.8%	-15%	-3
26	-1.7%	-16%	-2
27	x	8%	-8
28	x	1%	-3
29	0.2%	x	-2
30	x	-28%	-16

Printed as active in Sfp inh, of those listed so far:
entry	Compound	gsp ag	Menin MLL FP FL	Sfp inh	CtBP-E1A blk
6	O=C1NC(c2cccs2)Nc2sc3c(c21)CCCC3 (stereo not drawn)	29%	7.1	45µM*	-2
9	CC(C)CC(=O)Nc1ncc([N+](=O)[O-])s1	18%	5.2	35µM*	-1
30	Cc1ccccc1-n1sc2cc(F)ccc2c1=O	8%[15.4 µM]	-3.1	0.56µM*	-16

Additional compounds follow.
#	SMILES	TRPV1 PAM	gsp ag	Menin MLL FP FL	Sfp inh
31	CC(C)NC(=O)c1onc(CSc2ccc(Cl)cc2)c1C(=O)O	28	x	0.3	14%
32	O=C(Nc1cc(-c2nc3ccccc3s2)ccc1Cl)c1ccc2c(c1)OCO2	-6	-27%	-1.1	-8%
33	Cc1cc(NC(=O)CSc2nnc(-c3ccoc3C)n2N)no1	8	19%	3.2	5%
34	COC(=O)c1ccc(-n2c(C)cc(C(=O)CSc3cccc[n+]3[O-])c2C)cc1	4	-2%	0.5	11%
35	C(=N\Nc1ccc2ccccc2n1)/c1ccc2c(c1)OCO2	-13	-4%[15.4 µM]	-5.5	50µM*
36	Fc1ccccc1CSc1nnc(-c2ccccc2)o1	4	-1%	5.6	8%
37	O=[N+]([O-])c1ccccc1N/N=C/c1cccc(O)c1O	-4	0%	4.1	0%
38	CCCCN(C(=O)CCC(=O)O)C1CC(=O)N(c2ccc(OCCC)cc2)C1=O (stereo not drawn)	-9	3%	4.3	12%
39	COc1cc(OC)cc(-c2nnc(NC(=O)c3ccc4c(c3)OCCO4)o2)c1	12	-10%	0.5	0%
40	CN(CCO)c1ccc(C(C(=O)c2ccccc2)c2ccc(N(C)CCO)cc2)cc1	-30	x	x	x
41	CNc1nc(Nc2ccc(Br)cc2)nc(N)c1[N+](=O)[O-]	0	-14%	3.5	1%
42	CCOC(=O)c1c(NC(C)=O)sc2c(OCC(O)CN(CC)CC)c(Br)ccc12 (stereo not drawn)	6	u	-1.5	6%
43	COc1cccc2cc(-c3csc(CCn4nc(C)cc4C)n3)c(=O)oc12	-6	-27%	7.3	-2%
44	O=C(CN(Cc1ccccc1)C(=O)CSc1nnc(COc2ccccc2)o1)NC1CCCC1	0	-16%	2.4	79µM*
45	O=C(Cc1c(F)cccc1Cl)Nc1ccccc1-c1ccccc1	-8	-9%	0.9	17%

#	ClpP mod	gsp antag	CtBP-E1A blk
31	-2.6%	-11%	7
32	-11%	2%	51
33	-3.6%	5%	-13
34	2.1%	-28%	-7
35	x	-15%	-11
36	1.4%	8%	35
37	0.8%	9%	-10
38	1.4%	1%	1
39	-1.9%	4%	x
40	-0.9%	-10%	-26
41	-3.4%	8%	-8
42	x	10%	-8
43	-0.6%	u	-1
44	-0.4%	-14%	6
45	x	4%	-15

From no. 42 as far as 45, copied from above:
#	SMILES	TRPV1 PAM	gsp ag	Menin MLL FP FL	Sfp inh
42	CCOC(=O)c1c(NC(C)=O)sc2c(OCC(O)CN(CC)CC)c(Br)ccc12 (stereo not drawn)	6	u	-1.5	6%
43	COc1cccc2cc(-c3csc(CCn4nc(C)cc4C)n3)c(=O)oc12	-6	-27%	7.3	-2%
44	O=C(CN(Cc1ccccc1)C(=O)CSc1nnc(COc2ccccc2)o1)NC1CCCC1	0	-16%	2.4	79µM*
45	O=C(Cc1c(F)cccc1Cl)Nc1ccccc1-c1ccccc1	-8	-9%	0.9	17%

#	ClpP mod	gsp antag	CtBP-E1A blk
42	x	10%	-8
43	-0.6%	u	-1
44	-0.4%	-14%	6
45	x	4%	-15

Next records
#	SMILES	TRPV1 PAM	gsp ag	Menin MLL FP FL	Sfp inh
46	Cn1cccc1-c1cc(C(=O)N/N=C/C=C/c2ccccc2)[nH]n1	9	28%	2.5	-3%
47	CCN(CCNC(=O)C1CCCN(S(=O)(=O)CC)C1)c1ccccc1 (stereo not drawn)	-3	-14%	2.5	8%
48	O=C1c2cccnc2C(O)N1Cc1ccc(F)cc1 (stereo not drawn)	-7	5%	-1.4	4%
49	COc1ccc(O)c(/C=N/NC(=O)CCC(=O)Nc2ccc(C)cc2)c1	2	9%	0.5	2%
50	CN(CCc1ccccn1)C(=O)Nc1ccc(F)cc1	2	u	0.0	5%
51	O=C(OCc1cc([N+](=O)[O-])cc2c1OCOC2)c1ccc2ccccc2n1	-3	15%[15.4 µM]	-0.5	7%

#	ClpP mod	gsp antag	CtBP-E1A blk
46	x	-20%	-26
47	-19%	3%	1
48	-2.8%	4%	-16
49	u	1%	x
50	-1.0%	-3%	7
51	x	4%	6
